Screens from PubChem.
NOMO-1 viab: STK33 inhibitor candidate reducing NOMO-1 cell viability. 37,000 tested, 7.5% active. inhibition, % (concentration not given with the values). NOMO-1 AML viability, CellTiter-Glo luminescence, 72 h. AID 2330;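 active = most replicates above 80%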;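 note: wells of about 30 µL received 25 nL stock; 0% = median of vehicle wells and 100% = reference inhibitor level; the first replicate is given; inactives centre near 10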
An asterisk follows results filed as active.

SMILES	NOMO-1 viab
COC(=O)c1ccccc1Oc1nc(NC(C)C)nc(NC(C)C)n1	24
O=C(CSc1nccc(=O)[nH]1)Nc1ccc(Oc2ccccc2)cc1	7
COc1ccc(S(=O)(=O)N(C)C[C@@H]2Oc3ccc(NC(=O)Cc4ccccc4)cc3C(=O)N([C@H](C)CO)C[C@H]2C)cc1	6
C[C@H]1CN([C@@H](C)CO)C(=O)Cc2cc(NC(=O)c3ccncc3)ccc2O[C@H]1CN(C)Cc1ccc(C(F)(F)F)cc1	58
C[C@@H]1CN([C@@H](C)CO)C(=O)c2cccc(NC(=O)C3CCOCC3)c2O[C@H]1CN(C)C(=O)Nc1ccc(F)cc1	19
COc1ccc(NC(=O)Nc2ccc3c(c2)C(=O)N([C@H](C)CO)C[C@H](C)[C@@H](CN(C)Cc2ccncc2)OCCCC[C@@H](C)O3)cc1	-2
Cc1ccc(S(=O)(=O)N(C)C[C@@H]2Oc3c(NC(=O)Nc4ccc(F)cc4)cccc3C(=O)N([C@@H](C)CO)C[C@H]2C)cc1	1
C[C@H](CO)N1C[C@H](C)[C@H](CN(C)S(=O)(=O)c2cn(C)cn2)Oc2c(NS(=O)(=O)c3ccc(Cl)cc3)cccc2C1=O	2
Cc1cc(C)nc(SCCS(=O)(=O)Cc2ccccc2)n1	-13
Cc1ccc(S(=O)(=O)N(C)C[C@@H]2Oc3ccc(NC(=O)Nc4ccccc4)cc3CC(=O)N([C@H](C)CO)C[C@@H]2C)cc1	100*
N#Cc1ccccc1OCCCCSc1ncccn1	21
C[C@@H]1CN([C@@H](C)CO)C(=O)c2cccc(NS(=O)(=O)c3ccc(Cl)cc3)c2O[C@@H]1CN(C)S(=O)(=O)c1cn(C)cn1	14
C[C@H](CO)N1C[C@H](C)[C@@H](CN(C)S(=O)(=O)c2cn(C)cn2)Oc2c(NC(=O)Nc3cccc4ccccc34)cccc2C1=O	-3
O=C(NCCN1CCOCC1)C1COc2ccccc2O1 (centres undefined)	5
C[C@@H]1CN([C@@H](C)CO)C(=O)c2cc(NC(=O)Nc3cccc4ccccc34)ccc2O[C@@H]1CN(C)C	10
Cc1ccc(S(=O)(=O)Nc2ccc3c(c2)C(=O)N([C@H](C)CO)C[C@H](C)[C@@H](CN(C)C(=O)Nc2c(C)noc2C)OCCCC[C@@H](C)O3)cc1	33
C[C@@H]1CN([C@@H](C)CO)C(=O)c2cccc(NC(=O)Nc3cccc4ccccc34)c2O[C@H]1CN(C)S(=O)(=O)c1cccs1	4
C[C@@H]1CN([C@H](C)CO)C(=O)c2cc(NS(=O)(=O)c3ccc(Cl)cc3)ccc2O[C@@H]1CN(C)Cc1ccc(C(F)(F)F)cc1	116*
COc1cc(CO)cc(I)c1OCc1cccc(C(=O)O)c1	4
COc1cc([C@@H]2C3C=C([C@H]4Oc5cc(O)cc(O)c5C(=O)[C@@H]4O)[C@H]4[C@@H]2COC4(O)C3=O)ccc1O	-4
Cc1ccc(OCC(=O)Nc2ccc3oc(-c4ccc(F)cc4)nc3c2)cc1C	-4
CS(=O)(=O)N(CC(=O)Nc1ccc(Br)c(Cl)c1)c1cc(Cl)ccc1Cl	47
CCn1cnc2cc(NCc3cccc(OC)c3O)ccc21	-16
C[C@@H]1CN([C@H](C)CO)C(=O)c2cccc(NC(=O)c3cnccn3)c2O[C@@H]1CN(C)S(=O)(=O)c1cccs1	1
C[C@H]1CN([C@@H](C)CO)C(=O)Cc2cc(NS(=O)(=O)c3cn(C)cn3)ccc2O[C@@H]1CN(C)C(=O)Nc1ccc(C(F)(F)F)cc1	6
Continued.
SMILES	NOMO-1 viab
COC(=O)c1cc(OC)c(OC)cc1NC(=O)COc1cc(C)c(Br)cc1C	1
CC(=O)OC1CC2(C)C3CC=C4C(CC(O)C(O)C4(C)C)C3(C)CCC2(C)C1C(C)(O)C(=O)CCC(C)(C)O (centres undefined)	-13
C[C@H](CO)N1C[C@H](C)[C@@H](CN(C)C(=O)Nc2ccc(F)cc2)Oc2ccc(NC(=O)Cn3cnnn3)cc2C1=O	-8
Cc1noc(C)c1NC(=O)Nc1ccc2c(c1)C(=O)N([C@H](C)CO)C[C@@H](C)[C@H](CN(C)Cc1ccc(-c3ccccc3)cc1)O2	32
C[C@H](CO)N1C[C@H](C)[C@H](CN(C)Cc2ccc3c(c2)OCO3)Oc2c(NS(=O)(=O)c3cccs3)cccc2C1=O	-1
COc1ccccc1-c1nnc(SCC(=O)Nc2ccccc2)o1	28
Cc1cccc(NC(=O)CN(c2cc(Cl)c(Cl)cc2Cl)S(C)(=O)=O)c1	50
Cc1noc(C)c1NC(=O)N(C)C[C@H]1Oc2ccc(NC(=O)CCN3CCOCC3)cc2C(=O)N([C@@H](C)CO)C[C@@H]1C	0
CNC[C@H]1Oc2ccc(NC(=O)CCN3CCOCC3)cc2C(=O)N([C@@H](C)CO)C[C@@H]1C	0
COC(=O)c1cc(C(=O)NCc2ccccc2OC)cc([N+](=O)[O-])c1	32
Cc1noc(C)c1NC(=O)Nc1cccc2c1O[C@H](CN(C)Cc1ccc(Oc3ccccc3)cc1)[C@@H](C)CN([C@@H](C)CO)C2=O	76
COc1ccc(C(=O)C(C)Oc2cccc(NC(=O)c3ccccc3[N+](=O)[O-])c2)cc1 (centres undefined)	26
C[C@@H]1CN([C@H](C)CO)C(=O)Cc2cc(NS(=O)(=O)c3ccccc3)ccc2O[C@H]1CN(C)C	-4
C[C@@H]1CN([C@H](C)CO)C(=O)c2cc(NC(=O)Nc3ccc(C(F)(F)F)cc3)ccc2O[C@@H]1CN(C)C(=O)Nc1ccc2c(c1)OCO2	95*
Cc1noc(C)c1S(=O)(=O)Nc1ccc2c(c1)C(=O)N([C@H](C)CO)C[C@@H](C)[C@H](CN(C)CC1CCCCC1)O2	4
C[C@@H]1CN([C@@H](C)CO)C(=O)c2cccc(NS(C)(=O)=O)c2O[C@H]1CN(C)C(=O)Nc1ccc2c(c1)OCO2	-4
Cc1noc(C)c1NC(=O)Nc1cccc2c1O[C@@H](CN(C)C(=O)NC(C)C)[C@H](C)CN([C@H](C)CO)C2=O	13
O=C(CSc1nc2nc3c(cc2c(=O)n1-c1ccccc1)CCCC3)Nc1ccc(Cl)cc1	-12
COc1ccc(S(=O)(=O)Nc2cccc3c2O[C@@H](CN(C)C(=O)Nc2c(C)noc2C)[C@H](C)CN([C@H](C)CO)C3=O)cc1	2
C[C@@H]1CN([C@H](C)CO)C(=O)c2cc(NC(=O)Nc3cccc4ccccc34)ccc2O[C@H]1CN(C)C(=O)Nc1ccc2c(c1)OCO2	8
C[C@@H]1CN([C@H](C)CO)C(=O)c2cc(NC(=O)CCN3CCOCC3)ccc2O[C@H]1CN(C)Cc1ccc(C(=O)O)cc1	12
C[C@H](CO)N1C[C@H](C)[C@H](CN(C)C(=O)Nc2ccc(C(F)(F)F)cc2)Oc2ccc(NC(=O)Nc3ccc4c(c3)OCO4)cc2C1=O	54
CNC[C@@H]1Oc2ccc(NS(=O)(=O)c3c(C)noc3C)cc2CC(=O)N([C@H](C)CO)C[C@@H]1C	28
C[C@@H]1CN([C@@H](C)CO)C(=O)Cc2cc(NC(=O)C3CCCCC3)ccc2O[C@@H]1CN(C)C(=O)Nc1ccccc1	15
C[C@@H]1CCCCO[C@H](CN(C)Cc2ccc(C(F)(F)F)cc2)[C@@H](C)CN([C@H](C)CO)C(=O)c2cc(NC(=O)Nc3ccc(F)cc3)ccc2O1	100*
The list goes on:
SMILES	NOMO-1 viab
Cc1cccc(OCC(=O)Nc2ccc3c(c2)nc(CN2CCCCC2)n3C)c1	13
CC1(C)NC(=O)N(CC(=O)Nc2ccc(Br)cc2)C1=O	-6
CC(C)NC(=O)N(C)C[C@H]1Oc2ccc(NC(=O)Nc3ccccc3)cc2C(=O)N([C@@H](C)CO)C[C@H]1C	37
COc1ccc(NC(=O)Nc2cccc3c2O[C@@H](CN(C)Cc2ccc(C(F)(F)F)cc2)[C@@H](C)CN([C@@H](C)CO)C3=O)cc1	17
Cc1ccc(OCC(=O)Nc2cccc(C(=O)O)c2C)cc1	18
O=C(CN1C(=O)c2ccccc2S1(=O)=O)Nc1cccc(O)c1	2
C[C@H](CO)N1C[C@H](C)[C@H](CN(C)Cc2ccccc2)Oc2ccc(NC(=O)Nc3ccc4c(c3)OCO4)cc2CC1=O	29
C[C@@H]1CCCCO[C@@H](CN(C)Cc2ccc3c(c2)OCO3)[C@@H](C)CN([C@H](C)CO)C(=O)c2cc(NS(=O)(=O)c3ccc(Cl)cc3)ccc2O1	48
C[C@@H]1CCCCO[C@H](CN(C)S(=O)(=O)c2ccc(Cl)cc2)[C@@H](C)CN([C@H](C)CO)C(=O)c2cc(NS(=O)(=O)c3ccc(Cl)cc3)ccc2O1	20
O=C(Sc1ccccc1)c1cccc(Cn2cc(C(F)(F)F)ccc2=O)c1	-11
COc1ccc(-n2ncc(NC(=O)N3CCOCC3)c2C)cc1	7
O=C(CSc1nc2ccccc2o1)c1cc2ccccc2oc1=O	20
O=C(CN1CCN(S(=O)(=O)c2cccc([N+](=O)[O-])c2)CC1)Nc1cc(Cl)ccc1Cl	8
Cc1noc(C)c1NC(=O)Nc1ccc2c(c1)C(=O)N([C@@H](C)CO)C[C@@H](C)[C@@H](CN(C)C)O2	12
CNC[C@@H]1Oc2c(NC(=O)Nc3ccc(OC)cc3)cccc2C(=O)N([C@H](C)CO)C[C@@H]1C	-13
Cc1ccc(S(=O)(=O)N(C)C[C@H]2Oc3c(NC(=O)c4cc(C)nn4C)cccc3C(=O)N([C@@H](C)CO)C[C@H]2C)cc1	44
O=C(Cn1cnc2ccccc2c1=O)Nc1ccc(S(=O)(=O)N2CCCC2)cc1	-7
C[C@H](CO)N1C[C@H](C)[C@@H](CN(C)Cc2ccc3c(c2)OCO3)Oc2c(NC(=O)C3CCCCC3)cccc2C1=O	27
CS(=O)(=O)N1CCN(c2ccccc2NC(=O)COc2ccc(Cl)cc2)CC1	18
C[C@@H]1CN([C@H](C)CO)C(=O)c2cc(N(C)C)ccc2O[C@H]1CN(C)S(C)(=O)=O	5
C[C@H]1CN([C@@H](C)CO)C(=O)c2cccc(NC(=O)c3ccc(-c4nccs4)cc3)c2O[C@@H]1CN(C)Cc1ccc(Oc2ccccc2)cc1	35
Cc1ccc(S(=O)(=O)N(C)C[C@@H]2Oc3c(NC(=O)NC4CCCCC4)cccc3C(=O)N([C@@H](C)CO)C[C@@H]2C)cc1	26
COC(=O)CSc1nnc(-c2ccc(Cl)cc2)n1-c1ccc(Br)cc1	95*
C[C@@H]1CN([C@@H](C)CO)C(=O)Cc2cc(NS(=O)(=O)c3ccc(Cl)cc3)ccc2O[C@@H]1CN(C)Cc1ccc(Oc2ccccc2)cc1	20
Cc1ccc(S(=O)(=O)N(C)C[C@H]2Oc3ccc(NC(=O)Nc4ccc5c(c4)OCO5)cc3C(=O)N([C@H](C)CO)C[C@@H]2C)cc1	25
The results go on:
SMILES	NOMO-1 viab
C[C@@H]1CCCCO[C@@H](CN(C)C(=O)c2ccccc2)[C@@H](C)CN([C@H](C)CO)C(=O)c2cc(NS(=O)(=O)c3ccc(F)cc3)ccc2O1	-5
Cc1noc(C)c1NC(=O)N(C)C[C@H]1Oc2ccc(NC(=O)Nc3ccccc3)cc2C(=O)N([C@@H](C)CO)C[C@H]1C	32
CCn1c(SCC(=O)Nc2ccc(C)cc2)nc2ccc(I)cc2c1=O	39
COc1ccc(CN(C)C[C@@H]2Oc3c(NS(=O)(=O)c4ccc(C)cc4)cccc3C(=O)N([C@H](C)CO)C[C@H]2C)cc1	11
CS(=O)(=O)N(CC(=O)Nc1cccc(Cl)c1Cl)c1cc(Cl)c(Cl)cc1Cl	38
C[C@@H]1CN([C@H](C)CO)C(=O)Cc2cc(NC(=O)c3ccncc3)ccc2O[C@H]1CN(C)Cc1ccc(Oc2ccccc2)cc1	31
Cc1ccc(S(=O)(=O)Nc2ccc3c(c2)C(=O)N([C@H](C)CO)C[C@H](C)[C@@H](CN(C)S(=O)(=O)c2cccs2)O3)cc1	23
COc1c2ccoc2c(OC)c2oc(=O)ccc12	-3
COc1ccc(NC(=O)N(C)C[C@@H]2OCCCC[C@@H](C)Oc3ccc(N(C)C)cc3C(=O)N([C@H](C)CO)C[C@@H]2C)cc1	11
C[C@H]1CN([C@@H](C)CO)C(=O)c2cc(NC(=O)C3CC3)ccc2O[C@H]1CN(C)C(=O)Nc1cccc2ccccc12	14
Cc1nnc(SCC(=O)Nc2ccc(Oc3ccccc3)cc2)s1	20
O=C(CSC1=NCCS1)Nc1ccnc2ccccc12	45
C[C@@H]1CN([C@@H](C)CO)C(=O)c2cccc(NS(=O)(=O)c3ccc(Cl)cc3)c2O[C@H]1CN(C)S(=O)(=O)c1ccccc1	5

Seven of these compounds in another layout:
mol,NOMO-1 viab
Cc1ccc(S(=O)(=O)Nc2ccc3c(c2)C(=O)N([C@H](C)CO)C[C@H](C)[C@@H](CN(C)S(=O)(=O)c2cccs2)O3)cc1,23
COc1c2ccoc2c(OC)c2oc(=O)ccc12,-3
COc1ccc(NC(=O)N(C)C[C@@H]2OCCCC[C@@H](C)Oc3ccc(N(C)C)cc3C(=O)N([C@H](C)CO)C[C@@H]2C)cc1,11
C[C@H]1CN([C@@H](C)CO)C(=O)c2cc(NC(=O)C3CC3)ccc2O[C@H]1CN(C)C(=O)Nc1cccc2ccccc12,14
Cc1nnc(SCC(=O)Nc2ccc(Oc3ccccc3)cc2)s1,20
O=C(CSC1=NCCS1)Nc1ccnc2ccccc12,45
C[C@@H]1CN([C@@H](C)CO)C(=O)c2cccc(NS(=O)(=O)c3ccc(Cl)cc3)c2O[C@H]1CN(C)S(=O)(=O)c1ccccc1,5

Some of the compounds tested; count on the stated rates, not on these rows.
